MARV entry inh: inhibitors of Marburg virus binding or entry into cells; 18,000 compounds, 6.5% hits; Potency, µM (titrated, usually from 49.2 µM), for inactives: top-dose activity change, negative = inhibition, hits mostly inhibitors; Marburg virus pseudotype entry/binding inhibition, cell-based; control for the full effect not named in the record; many of its hits are not listed in these tables; active means well fitted inhibition curve with a large enough effect; inconclusive means small, poorly fitted or top-dose-only effect; inactive means no such curve, though single readings can be large or run the other way; tested in HEK293 cells; note: luciferase read-out
LASV entry inh: Lassa virus entry inhibition. Potency, µM (top dose mostly 49.2 µM), for inactives: top-dose activity change, negative = inhibition, usual class: inhibitors. 18,000 compounds, 4.1% hits. Lassa virus pseudotyped entry inhibition, cell-based qHTS; control for the full effect not named in the record; many of its hits are not listed in these tables; active = well fitted inhibition curve with a large enough effect; inconclusive = small, poorly fitted or top-dose-only effect; inactive = no such curve, though single readings can be large or run the other way; tested in HEK293 cells; note: luciferase read-out
Active calls of the source: *; ? = inconclusive; . = not tested or not shown; & = joins results of further samples; [ ] = remark or other dose. % is set by controls: 0 for no effect and ±100 for the full control effect; potency is the fitted concentration of half-maximal effect.

compound | MARV entry inh | LASV entry inh
CC(CC(O)C1OC1(C)C)C1CCC2(C)C3=CCC4C(C)(C)C(=O)CCC4(C)C3CC[C@@]12C (stereo not given in full) | ? | -11%
Cc1cnc(CNc2nc(-c3ccc(N(C)C)cc3)nc3ccccc23)cn1 | 122%[activator] | 45%[activator]
C[C@](N)(COP(=O)(O)O)C(=O)O | 21% | -11%
CCCN(CCC)C(=O)Cc1c(-c2ccc(Cl)cc2)nc2ccc(Cl)cn12 | ? | -25%
CC(=O)OCC(=O)[C@]1(O)C(OC(C)=O)CC2C3CCC4=CC(=O)C=C[C@@]4(C)[C@]3(F)C(O)C[C@]21C (stereo not given in full) | 8% | -2%
Cc1ccc([S+](=O)([O-])N[C@@H]2COC(=O)CC=C[C@H](C)COC(=O)N[C@@H](C)C(=O)CC=C[C@H]2C)cc1 | 11%[8.59 µM] | -27%[8.59 µM]
COc1ccc(Cl)cc1N1C(=O)[C@@H]2C[C@H]1CN2Cc1nc2ccccc2nc1C | 2% | -9%
Cc1ccc([C@H]2C[C@@H](n3cc(COC(=O)c4ccccc4)nn3)[C@H](O)CN2Cc2cccs2)cc1 | -11% | 14%
O=C(Nc1ccccc1F)c1ccc(Br)o1 | 53%[activator] | 36%[activator]
COc1cccc(C=NC=Nc2cccc(OC)c2)c1 | 48%[activator] | 57%[activator]
N[C@H](C(=O)O)C1[C@H](C(=O)O)[C@H]1C(=O)O (stereo not given in full) | 9% | -1%
NC(=O)CC[C@@H]1NC(=O)[C@H](Cc2ccccc2)NC(=O)[C@H](Cc2ccc(O)cc2)NC(=O)[C@@H](N)CSSC[C@@H](C(=O)N2CCC[C@H]2C(=O)N[C@@H](CCCN=C(N)N)C(=O)NCC(N)=O)NC(=O)[C@H](CC(N)=O)NC1=O | 2%&2%&-12% | 2%&-9%&-15%

Random excerpt: 2 entries already listed
compound | MARV entry inh | LASV entry inh
CC(=O)OCC(=O)[C@]1(O)C(OC(C)=O)CC2C3CCC4=CC(=O)C=C[C@@]4(C)[C@]3(F)C(O)C[C@]21C (stereo not given in full) | 8% | -2%
Cc1ccc([S+](=O)([O-])N[C@@H]2COC(=O)CC=C[C@H](C)COC(=O)N[C@@H](C)C(=O)CC=C[C@H]2C)cc1 | 11%[8.59 µM] | -27%[8.59 µM]

(continued)
compound | MARV entry inh | LASV entry inh
CC[C@H](C)[C@H](NC(=O)[C@H](CC(C)C)NC(=O)[C@H](CO)NC(=O)[C@H](CCC(=O)O)NC(=O)[C@H](CC(C)C)NC(=O)[C@H](Cc1ccc(O)cc1)NC(=O)[C@H](CCCCN)NC(=O)[C@H](CCCCN)NC(=O)[C@H](C)NC(=O)[C@H](CO)NC(=O)[C@H](CC(C)C)NC(=O)[C@H](CCC(N)=O)NC(=O)CNC(=O)[C@H](CC(C)C)NC(=O)[C@H](CC(C)C)NC(=O)[C@H](CCCNC(=N)N)NC(=O)[C@H](CO)NC(=O)[C@H](Cc1ccccc1)NC(=O)[C@H](CC(=O)O)NC(=O)[C@H](CO)NC(=O)[C@@H](NC(=O)[C@H](Cc1ccccc1)NC(=O)[C@@H](NC(=O)CNC(=O)[C@H](CC(=O)O)NC(=O)[C@H](C)NC(=O)[C@@H](N)Cc1cnc[nH]1)C(C)C)[C@@H](C)O)C(N)=O | 2% | -11%
O[C@H](c1cc(C(F)(F)F)nc2c(C(F)(F)F)cccc12)[C@H]1CCCCN1 | ? | 6%[17.8 µM]
CC(=O)O[C@@H]1C[C@@]2(C)C(c3ccoc3)C[C@H]3O[C@]32[C@]2(C)C(=O)C(O)=C3C(C)(C)C(=O)C=C[C@]3(C)C12 (stereo not given in full) | 8.9µM* | 8.9µM*
CN(C(=O)Cc1ccc(Cl)c(Cl)c1)[C@H](CN1CCCC1)c1ccccc1 | 7.1µM* | 20µM*
C[C@@H](CC(=O)O)[C@@H](N)C(=O)O | 12%&3% | 23%&-11%
CC[C@H](C)[C@@H](NC(=O)O[C@@H]1Cc2cc(Br)ccc2O[C@H]1c1cccc(OC)c1)C(=O)OC | 26% | 3%
OC[C@H]1O[C@H](C#Cc2ccccc2)C=C[C@H]1O | 20%[8.59 µM] | .
COc1cc2c(cc1OC)C1C(=O)c3c(cc4c(c3O)C=CC(C)(C)O4)OC1CO2 (stereo not given) | -5% | -3%
COc1ccc(-c2[nH]ncc2CN2CCOc3c(cc(-c4cccc(OC)n4)cc3OC)C2)cc1 | -3% | -12%
COc1c2ccoc2nc2c(OC)c(OCC(O)C(C)(C)O)ccc12 (stereo not given) | -12%&2% | 1%&-1%
CNC1C(O)C(O[C@H]2C(O)[C@@H](OC3OC(CN)=CCC3N)[C@H](N)C[C@@H]2N)OC[C@]1(C)O (stereo not given in full) | -8% | 30%
NC(=O)N/N=C/c1ccc(Oc2ccc(F)cc2)cc1 | -6% | -3%

Next part, overlapping the part above by 7 compounds.
compound | MARV entry inh | LASV entry inh
CC[C@H](C)[C@@H](NC(=O)O[C@@H]1Cc2cc(Br)ccc2O[C@H]1c1cccc(OC)c1)C(=O)OC | 26% | 3%
OC[C@H]1O[C@H](C#Cc2ccccc2)C=C[C@H]1O | 20%[8.59 µM] | .
COc1cc2c(cc1OC)C1C(=O)c3c(cc4c(c3O)C=CC(C)(C)O4)OC1CO2 (stereo not given) | -5% | -3%
COc1ccc(-c2[nH]ncc2CN2CCOc3c(cc(-c4cccc(OC)n4)cc3OC)C2)cc1 | -3% | -12%
COc1c2ccoc2nc2c(OC)c(OCC(O)C(C)(C)O)ccc12 (stereo not given) | -12%&2% | 1%&-1%
CNC1C(O)C(O[C@H]2C(O)[C@@H](OC3OC(CN)=CCC3N)[C@H](N)C[C@@H]2N)OC[C@]1(C)O (stereo not given in full) | -8% | 30%
NC(=O)N/N=C/c1ccc(Oc2ccc(F)cc2)cc1 | -6% | -3%
CCC12C=C(C=Cc3ccccc3)C(CC)(C1)C(c1ccccc1)CC2=O (stereo not given) | 13%[8.59 µM] | -22%[8.59 µM]
Cc1cccc(C(=O)N2CCC(=O)N([C@H](COCc3cccc(C(F)(F)F)c3)Cc3ccccc3)CC2)c1 | ? | ?
N[C@]1(C(=O)O)CC[C@@H](C(=O)O)C1 (racemic) | 3%&9% | -3%&5%
CC(=O)C1CCC2C3CCC4CC(C)(O)CCC4(C)C3CCC12C (stereo not given) | 3% | 1%
CN(C)c1ccc(-c2nc(Nc3ccncc3)c3ccccc3n2)cc1 | ? | -32%
COC(=O)c1c(C(=O)OC)c2c3cc(OC)c(OC)cc3ccn2c1C(=O)OC | 23%[8.59 µM] | .
O=C(NCCN1Cc2ccccc2OC(c2ccccc2F)C1)c1ccco1 (stereo not given) | -15% | -10%
CC(C)(C)c1ccc(CN2CCN(C(c3ccccc3)c3ccc(Cl)cc3)CC2)cc1 (stereo not given) | ? | ?
COCCN1C(=O)CC[C@@]23C1=NC(C(=O)OC)=C(C(=O)OC)[C@@H]2N(CC=C(C)C)c1ccccc13 | -14%[8.59 µM] | -9%[8.59 µM]
CCC[CH2][Sn][CH2]C=C[C@@H]1C[C@@H](CCOCc2ccc(OC)cc2)OP(=O)(O)O1 | -3% | 32%
O=C(O)[C@H](O)c1ccccc1 | 8% | -6%
COc1ccc2c(c1)O[C@H](c1ccc3c(c1)OCO3)[C@@H](OC(=O)NS(=O)(=O)c1ccc(F)cc1)C2=O | 8% | 3%

Other structures:
Every second line gives: MARV entry inh	LASV entry inh
CCC1CN(CC(=O)NCc2ccc3c(c2)OCO3)Cc2ccc(Cl)cc2O1 (stereo not given)
  ?	22%
Cc1cc(I)ccc1Nc1c(C(=O)NOCC2CC2)cc(F)c(F)c1F
  11µM*	?
c1nc(NC2CCNCC2)c2cc(-c3ccc4c(c3)OCO4)ccc2n1
  ?	-5%
C[N+](C)(C)CCCCCNCC12CC3CC(CC(C3)C1)C2
  8%	-2%
COc1ccccc1O
  24%[107 µM]	-13%[107 µM]
Cc1cc2oc(=O)cc(-c3ccccc3)c2c(C)c1-c1ccc(C(F)(F)F)cc1
  4%	-4%
CC(=O)OC[C@H]1O[C@@H](ON=C(C)CCN2CCCCc3nc(C)c(C)cc32)[C@H](OC(C)=O)[C@@H](OC(C)=O)[C@H]1OC(C)=O
  1%[8.59 µM]	-10%[8.59 µM]
COC(=O)C1=C(C)NC(C)=C(C(=O)O[C@H]2CCN(Cc3ccccc3)C2)[C@H]1c1cccc([N+](=O)[O-])c1
  22µM*	?
COc1ccc2c(c1)C(c1ccc3c(c1)OCO3)CC(=O)O2 (stereo not given)
  -2%	0%
C[C@H]1C[C@]2(O[C@@H]2C)C(=O)O[C@@H]2CCN(C)C/C=C(/COC(=O)[C@]1(C)O)C2=O
  -9%	-5%
COCC(=O)Nc1cc(Sc2ccccc2)ccc1N=C(NC(=O)OC)NC(=O)OC
  -3%	?
C[C@@H](NS(=O)(=O)c1c(F)cccc1F)c1ccccc1
  7%	16%
C[C@@H]1CN(Cc2ccc3c(c2)CN(C(=O)CCc2nc4ccc(F)cc4[nH]2)CCO3)C[C@H](C)O1
  -17%	-15%
C[C@H]1C[C@H]2[C@@H]3CCC4=CC(=O)C=C[C@]4(C)[C@@]3(F)[C@@H](O)C[C@]2(C)[C@@]1(O)C(=O)CCl
  ?	-48%
COc1ccc(-c2oc3cc(OC)ccc3c(=O)c2O)cc1
  -4%	?
COc1ccccc1C1CN(Cc2cn(C)nc2C)Cc2ccccc2O1 (stereo not given)
  -6%	2%
O=C(O)C[C@H](O)C[C@H](O)/C=C/c1c(C2CC2)nc2ccccc2c1-c1ccc(F)cc1
  12%	-6%
C=CCC12OC3(OC)CC1[C@H](C)[C@@H](c1ccccc1)C2[C@]3(O)CC=C (stereo not given in full)
  6%[8.59 µM]	-1%[8.59 µM]
NS(=O)(=O)c1ccc(N=Nc2c(O)[nH]c3ccc(C(=O)NCCc4cnc[nH]4)cc23)cc1
  29%	?
C[N+]1(C)CCN(CC(O)(c2ccccc2)C2CCCCC2)CC1 (stereo not given)
  3%	-1%
C[N+](C)(C)CC(O)CC(=O)[O-] (stereo not given)
  9%	-24%
C=CC(=O)c1ccc2ccccc2c1
  ?	?
O=C(NCc1ccon1)c1ccc(-c2csc3ccccc23)nc1N1CCC(N2CCCC(CO)C2)CC1 (stereo not given)
  7%	1%
Nc1ncnc2c1nc(Sc1ccc(Cl)cc1)n2[C@@H]1O[C@@H]2COP(O)(=S)O[C@H]2[C@H]1O (stereo not given in full)
  9%	-10%
CC1(OC(=O)c2ccc(Cl)nc2)C(=O)Cc2cc(-c3ccsc3)ncc2C1=O (stereo not given)
  -19%[8.59 µM]	10%[8.59 µM]
CN(C)CCc1ccc(O)cc1
  1%&9%	-16%&2%
CC1(OC(=O)C2CCCC2)C(=O)C=C2C=C(c3ccsc3)N(c3cccc(C#N)c3)C=C2C1=O (stereo not given)
  11%[8.59 µM]	-4%[8.59 µM]
Cc1ncc(CO)c(CN)c1O
  13%	-8%
COc1ccccc1C1CN(CCNC(=O)c2cscn2)Cc2ccccc2O1 (stereo not given)
  7%	-5%
CC(=O)O[C@]1(C(C)=O)CC[C@H]2[C@@H]3C[C@H](C)C4=CC(=O)CC[C@]4(C)[C@H]3CC[C@@]21C
  ?	-26%
COc1c(CO)cc(CO)cc(CO)c1=O
  5%	2%
NC(N)=NCCC[C@H](N)C(=O)N1CCC[C@H]1C(=O)N1CCC[C@H]1C(=O)NCC(=O)N[C@@H](Cc1ccccc1)C(=O)N[C@@H](CO)C(=O)N1CCC[C@H]1C(=O)N[C@@H](Cc1ccccc1)C(=O)O
  21%	2%
N[C@@H](Cc1cc(-c2ccc(Cl)cc2Cl)cc(CP(=O)(O)O)c1O)C(=O)O
  11%	-2%
Cn1cc(C(F)(F)F)nc1-c1ccc(OCC(O)CNCCOc2ccc(O)c(C(N)=O)c2)cc1 (stereo not given)
  ?	-4%
Cn1c(SCC2CCCO2)nnc1C1CCN(Cc2ccco2)CC1 (stereo not given)
  3%	-7%
O[C@@H]1CN(CC2CCCCC2)[C@@H](c2ccccc2)C[C@@H]1n1cc(C2CC2)nn1
  ?	-27%
CC(C)C[C@@H](C=O)NC(=O)[C@H](CC(C)C)NC(=O)[C@H](CC(C)C)NC(=O)OCc1ccccc1
  ?	3.5µM*
C[C@@H]1[C@H]2CC[C@@H]3[C@@H]4CC=C5C[C@@H](N(C)C)CC[C@]5(C)[C@@H]4CC[C@@]32CN1C
  5.6µM*	-9%[17.8 µM]
CC(O)(COc1ccccc1)c1ccc2c(c1)CN(Cc1cccnc1)CCO2 (stereo not given)
  ?	27%
COc1cccc(CNS(=O)(=O)c2ccccc2Br)c1
  39%[activator]	54%[activator]
COc1cccc(-c2nccc(NC3CCNCC3)n2)c1
  ?	11%
NS(=O)(=O)c1ccc(-c2ccc3c(NC(=O)C4CC4)n[nH]c3c2)cc1
  -14%	-3%
COc1ccc(-c2cc(=O)c3c(O)cc(O)cc3o2)cc1
  45%[activator]	2%
CCCCN1C[C@H](Cc2ccccc2)[C@@H](CC(=O)NC)C1=O
  -20%	11%
CCCCC/C=C\C/C=C\C/C=C\C/C=C\CCCC(=O)OCCN
  15%&9%	8%&3%
Cc1ccc([C@H]2C[C@H](O)[C@@H](n3cc(-c4ccc(F)cc4)nn3)CN2C(=O)c2cccs2)cc1
  ?	13%
CS(=O)(=O)Nc1cccc(-c2nc(NCc3cccs3)c3ccccc3n2)c1
  -2%	?
CCCCN1CC(COCc2ccccc2)Oc2cccc(Oc3ccc(C)cc3)c2S1(=O)=O (stereo not given)
  -25%	.
CC(C)(C)[Si](C)(C)OCCC[C@@H]1C[C@H]2C=CCOP(=O)(O1)O2
  14%	-2%
Cc1ccc([C@H]2C[C@H](O)[C@@H](n3cc(-c4ccc(F)cc4)nn3)CN2Cc2cccs2)cc1
  ?	.
O=C1N[C@@H]2[C@H](CCCCC(=O)Oc3ccc([N+](=O)[O-])cc3)SC[C@H]2N1
  -1%	-13%

Source: PubChem (National Center for Advancing Translational Sciences (NCATS))

Not all compounds are listed (hit frequency here may not be typical).
